Compound activity from PubChem BioAssay.
VDR inhibitor = inhibitors of human vitamin D receptor; P11473; VDR-SRC2-3 peptide fluorescence polarization, 2 h; Potency, µM, for inactives: max response, negative = inhibition, usual class: inhibitors; 400,000 compounds, 0.93% hits; AID 504847; active = well fitted inhibition curve with a large enough effect; inconclusive = small, poorly fitted or top-dose-only effect, or another doubt; inactive = no such curve, though single readings can be large or run the other way; note: series mostly up to about 120 µM
Target sequence (P11473 whole entry, looked up): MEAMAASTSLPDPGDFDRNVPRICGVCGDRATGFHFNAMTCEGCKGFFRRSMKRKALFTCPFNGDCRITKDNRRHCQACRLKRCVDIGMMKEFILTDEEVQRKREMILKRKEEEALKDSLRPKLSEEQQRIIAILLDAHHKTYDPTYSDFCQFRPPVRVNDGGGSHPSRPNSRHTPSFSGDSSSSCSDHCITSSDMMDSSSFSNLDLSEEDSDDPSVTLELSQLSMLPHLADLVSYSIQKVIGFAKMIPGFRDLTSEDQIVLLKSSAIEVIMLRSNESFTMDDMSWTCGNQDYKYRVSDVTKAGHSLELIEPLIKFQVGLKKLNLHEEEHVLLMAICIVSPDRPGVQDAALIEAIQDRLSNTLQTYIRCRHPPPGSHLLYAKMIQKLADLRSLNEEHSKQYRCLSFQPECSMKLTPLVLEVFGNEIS
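VDR–SRC2-3 interaction, FP format. Cmpds 23 nl via pintool, brief spin, 2 h ambient incubation.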
* = called active by the depositor; ? = inconclusive; & = joins results of further samples; [ ] = remark or other dose. % is set by controls: 0 for no effect and ±100 for the full control effect; potency is the fitted concentration of half-maximal effect.

SMILES	VDR inhibitor
COc1cccc(NC(=O)CSC2=NN3CCCC(=O)N=C3S2)c1	13%
Cc1cccc(NC(=S)N2CCCCCC2)c1C	-2%
CCOc1ccc(S(=O)(=O)c2c(C(=O)c3ccc(C)c(C)c3)cnc3ccccc23)cc1	-16%
O=C(Nc1cccc(-c2nc3ccccc3o2)c1)c1cccnc1	-5%
O=C(NNS(=O)(=O)c1ccc(Cl)cc1)NC1CCCCC1	12%
CCCN(C(=O)COC(=O)CC1CCCCC1)c1c(N)n(Cc2ccccc2)c(=O)[nH]c1=O	-18%
CC(C)(C)[C@H]1COC(=O)[C@@H](Cc2ccc(F)cc2)CC/C=C/C[C@@H](CC(=O)N[C@H](CO)Cc2ccccc2)C(=O)N1	15%
COc1cccc(/C=N/NC(=O)CN2CC(c3ccccc3)CC2=O)c1OC (centres undefined)	-11%
COc1ccc(C2C(C(=O)N3CCC(C)CC3)c3ccccc3C(=O)N2C)cc1 (centres undefined)	-15%
CCn1c(C)nc2cc(C(=O)NNC(=O)CCC3CCCCC3)ccc21	-9%
COc1ccc(-c2c(C(C)=O)c(C)n(C)c2C)cc1	-7%
Nc1ccccc1SCC(O)Cn1ccc2ccccc21 (centres undefined)	-3%
CC1SCC(=O)N(CC(=O)NCCc2ccccc2)C1=O (centres undefined)	2%
CCOc1cc(N2CCOCC2)c(OCC)cc1NC(=O)Cn1cnc2c(=O)n(C)c(=O)n(C)c21	-7%
COC(=O)c1ccc2c(c1)NC1=C(C(=O)CC(C)(C)C1)C(c1ccncc1)N2 (centres undefined)	-6%
COc1ccc(Cc2noc(CN3CCCC(C(=O)c4cccs4)C3)n2)cc1OC (centres undefined)	8%
CCC(=O)N1c2ccccc2CC1C(=O)NCCc1ccc(Cl)cc1 (centres undefined)	0%
CC(=O)Nc1ccc(SCCCC(=O)c2ccccc2)cc1	-19%
Cc1ccc(CCNC(=O)c2c3c(nc4ccccc24)C(=O)N(C2CCCCC2)C3)cc1	16%
CCOc1nc2ccccc2cc1/C=C/C(=O)O	-7%
COc1ccc(Cc2nc3ccc(C(=O)NCCCN4CCN(C)CC4)cc3o2)cc1	5%
Cc1nccc(-c2cccc(NC(=O)c3ccccc3Cl)c2)n1	-20%
Cc1cc(C)nc(NCC(O)COc2ccccc2C)n1 (centres undefined)	3%
COc1ccc(CNC(=O)CCS(=O)(=O)Cc2ccc(C)cc2)c(OC)c1	-1%
Cc1ccc(S(=O)(=O)CCC(=O)N2CCN(c3ccc([N+](=O)[O-])cc3)CC2)cc1	25µM*
COc1ccccc1CNC(=O)CSc1nc2c(oc3ccccc32)c(=O)n1CC1CCCO1 (centres undefined)	-16%
Cc1onc(-c2ccccc2)c1C(=O)NCCc1ccncc1	42%[activator]
CC(=O)OCCOCn1cnn2c(=O)c(Br)c(C)nc12	-2%
CCOCCCNc1ncnc2onc(C)c12	13%
Cn1c(CNC(=O)c2ccccc2F)cc2ccccc21	-20%
CCc1ccc(-n2c(=O)c3cccnc3n2CC(=O)NCc2ccccc2)cc1	5%
CCOC(=O)c1c(O)c2ccccc2n(CC)c1=O	39%[activator]
Cc1cc(C)cc(SCc2noc(C(=O)NCCC(C)C)c2C(=O)NCCC(C)C)c1	-5%
O=C(CN1CCCCCC1)Nc1c(Cl)cc(Cl)cc1Cl	-4%
COc1cccc(Oc2ccc(C(F)(F)F)cc2N)c1	-8%
Cc1cccc(NC(=O)CN2C(=O)NC3(CCCCCCC3)C2=O)c1C	-8%
C=C(C)c1cccc(C(C)(C)NC(=O)Nc2ccccc2OCC)c1	-8%
Cc1cc(-c2ccc(N=Nc3ccc4c(S(=O)(=O)O)cc(S(=O)(=O)O)c(N)c4c3O)c(C)c2)ccc1N=Nc1ccc2c(S(=O)(=O)O)cc(S(=O)(=O)O)c(N)c2c1O	?
Cc1ccc(NC(=S)NC(NC(=O)c2ccccc2C)C(Cl)(Cl)Cl)c(C)c1 (centres undefined)	10%
COc1ccc(CNc2nc3nc(C)c(Cl)c(C)n3n2)cc1	3%
COc1ccc(NC(=O)C(=O)NNC(=O)COc2ccc(Cl)cc2)c(OC)c1	2%
CCN(CC)C(=O)C(=O)Nc1cc(C(F)(F)F)ccc1Cl	-5%
O=C(c1ccc(-c2ccccc2Cl)o1)N1CCCCCCC1	-17%
COc1cc(OC)cc(-c2nnc(SCc3cccnc3)o2)c1	-3%
COc1ccccc1/C=C\C=N\n1c(-c2ccc(Cl)cc2Cl)n[nH]c1=S	-5%
CC1(c2ccc(OC(F)F)cc2)NC(=O)N(CC(=O)Nc2cccc(F)c2)C1=O (centres undefined)	7%
Cc1nn(CC(=O)NCCCN2CCC(Cc3ccccc3)CC2)c(=O)c2cc(-c3ccccc3)nn12	-20%
Cc1cc(OC(C)C(=O)N2CCN(CCc3ccccn3)CC2)ccc1Cl (centres undefined)	1%
Cc1ccc2oc(=O)n(CCCOc3ccc(Cl)cc3)c2c1	13%
CN(Cc1nccn1C)C(=O)c1cc(COc2ccc3ncccc3c2)on1	-6%

The list continues:
SMILES	VDR inhibitor
COc1cccc(CNC(=O)C2CCCN(c3nc4ccccc4n4cccc34)C2)c1 (centres undefined)	8%
O=C(CN1CCC(C(=O)c2ccc3c(c2)OCCO3)CC1)NCc1ccccc1	11%
Cc1ccc(-c2noc(CN(C(=O)c3cccs3)C(C)C)n2)cc1	-4%
O=C(/C=C/c1cccs1)NC(=S)Nc1ccccc1	-10%
CC(CC(=O)N1CCc2ccccc21)S(=O)(=O)c1ccc2c(c1)NC(=O)CO2 (centres undefined)	-9%
CCOP(=O)(OCC)C(Nc1ccccn1)c1ccc(F)cc1 (centres undefined)	-13%
Cc1ccc2oc(C(=O)Nc3sc4c(c3C(=O)NCC3CCCO3)CCC4)cc(=O)c2c1 (centres undefined)	15%
COc1ccc(C(=O)C[n+]2ccc(-c3nnc4n3CCCCC4)cc2)cc1	5%
O=C(Nc1ccc(Cl)cn1)c1cccc(OCc2ccccc2)c1	-1%
O=C(COC(=O)CNC(=O)c1ccccc1F)NC1CC1	17%
CCOC(=O)c1cnc(-n2nc(C)cc2C)nc1N1CC(C)OC(C)C1 (centres undefined)	-4%
COc1cccc(NC(=O)CSc2nnc(-c3cc(C)[nH]n3)n2N)c1	-3%
CCOC(=O)N1CCN(C(=O)c2ccc3c(=O)n(CCc4ccccc4)c(=O)[nH]c3c2)CC1	6%
Cc1cccc(C2=NN(c3ccc(Br)cc3)[C@@H](C(=O)N3CCOC3=O)[C@@H]2c2ccc(Cl)cc2)c1	-14%&-7%
NNC(=O)[C@H]1C[C@@H]1c1ccccc1	-9%
CCOC(=O)c1cc2c(c(CCO)n1)[C@@H](CCO)N(S(=O)(=O)C(C)(C)C)C2	16%
CC1=C(CO)C(=O)OC([C@@H](C)C2CC[C@H]3C4C[C@H]5O[C@]56[C@@H](O)C=CC(=O)[C@]6(C)C4CC[C@]23C)C1 (some centres undefined)	18µM*
CC1CCN(C(=O)c2ccc(NS(=O)(=O)c3ccc4[nH]c(=O)[nH]c4c3)cc2)CC1	3%
CCCc1ccc(OCC(=O)Nc2scc(-c3cccs3)c2C(=O)OC)cc1	-6%
Fc1ccc2cnc(-c3ccccc3)c(-c3ccc(C(F)(F)F)cc3)c2c1	-13%

Six compounds drawn at random from those above, as already listed:
SMILES	VDR inhibitor
Fc1ccc2cnc(-c3ccccc3)c(-c3ccc(C(F)(F)F)cc3)c2c1	-13%
CCCc1ccc(OCC(=O)Nc2scc(-c3cccs3)c2C(=O)OC)cc1	-6%
Cc1cccc(C2=NN(c3ccc(Br)cc3)[C@@H](C(=O)N3CCOC3=O)[C@@H]2c2ccc(Cl)cc2)c1	-14%&-7%
CCOC(=O)N1CCN(C(=O)c2ccc3c(=O)n(CCc4ccccc4)c(=O)[nH]c3c2)CC1	6%
COc1cccc(NC(=O)CSc2nnc(-c3cc(C)[nH]n3)n2N)c1	-3%
CC1CCN(C(=O)c2ccc(NS(=O)(=O)c3ccc4[nH]c(=O)[nH]c4c3)cc2)CC1	3%

4 compounds from above, sorted by their value in VDR inhibitor, rising.
SMILES	VDR inhibitor
NNC(=O)[C@H]1C[C@@H]1c1ccccc1	-9%
CCCc1ccc(OCC(=O)Nc2scc(-c3cccs3)c2C(=O)OC)cc1	-6%
CCOC(=O)c1cnc(-n2nc(C)cc2C)nc1N1CC(C)OC(C)C1 (centres undefined)	-4%
CCOC(=O)N1CCN(C(=O)c2ccc3c(=O)n(CCc4ccccc4)c(=O)[nH]c3c2)CC1	6%

(listing goes on)
SMILES	VDR inhibitor
COc1cc(C(=O)O[C@H]2CC(C)=CC[C@@]3(C)CC[C@@](O)(C(C)C)[C@H]23)ccc1O	2%
COc1ccc(CC(=O)OCC(=O)Nc2ncc(Cl)c(C)c2Cl)cc1	1%
Cc1cc(NC(=O)CCN2C(=O)C3C4C=CC(C4)C3C2=O)c2ccccc2n1 (centres undefined)	-19%
Cc1cc(NC(=O)COC(=O)c2ccccc2O)no1	-4%
Clc1cc(Cl)c2nc(N3CCCCC3)sc2c1	-21%
COc1ccc(/C(N)=N/OC(=O)Cc2cccs2)cc1	-5%
CC(C)(C)NC(=O)C(c1ccc(F)cc1)N(CCc1ccccc1)C(=O)c1ccn[nH]1 (centres undefined)	-6%
CC(=O)C1(C)C(=O)N(c2ccc(C)cc2)C(=O)N1c1ccc(C)cc1 (centres undefined)	-12%
O=C(NCCCn1ccnc1)c1cccc(S(=O)(=O)Nc2ccccc2F)c1	2%
Cc1ccc(OCC(=O)c2cc(C)c(C)cc2C)c([N+](=O)[O-])n1	0%
CCN(CC)C(=O)Nc1ccc2c(c1)N(Cc1ccccc1)C(=O)c1ccccc1S2	1%
Cc1nc2c(C)cccn2c1C(=O)c1ccccc1	-8%
COc1ccccc1NC(=O)Cn1c(=O)n(Cc2nc(C)no2)c(=O)c2cc3c(cc21)OCO3	-4%
Cc1ccccc1NC(=O)CCn1c(=O)oc2ccccc21	-10%
O=C(Nc1ccccc1C(=O)Nc1nnc(C(F)(F)F)s1)c1ccccc1	-2%
Cc1ccc(-c2csc(NC(=O)CN3CC(C)OC(C)C3)n2)cc1 (centres undefined)	2%
CC(=O)c1ccc(NC(=O)C(C)NCc2ccc(Cl)cc2)cc1 (centres undefined)	-17%
Cc1ccc(C(=O)c2nccn2C)cc1C	-7%
Cc1cc(=O)oc2cc(OCC(=O)N/N=C/c3ccccc3O)ccc12	9%
N#CCC(=O)Nc1ccccc1C(=O)O	2%
CCO[C@@H]1OC(C(=O)Nc2ccccc2)=C[C@H](c2coc3ccccc3c2=O)[C@H]1CCCO	-4%
CC(=O)Nc1n[nH]c(-c2ccc(C)cc2)c1C	-4%
CCn1c(C(O)c2cccc(OC)c2OC)nc2ccccc21 (centres undefined)	11%
O=S1(=O)[C@H]2C[C@@H]3C=C[C@@]2(CN1Cc1cccc(F)c1)O3	-4%
Cc1ccc(N=C2SC(C(=O)Nc3ccc(OC(F)(F)F)cc3)C(N)=C2C(=O)Nc2c(C)cc(C)cc2C)cc1 (centres undefined)	-14%
Cc1c(NC(=O)CC(=O)Nc2c(C)n(C)n(-c3ccccc3)c2=O)c(=O)n(-c2ccccc2)n1C	-7%
COc1ccc(-c2coc3cc(OC(C)=O)ccc3c2=S)cc1	?
O=C(CNC(=O)c1ccccc1Cl)OCc1cc(=O)n2ccsc2n1	4%
COC(=O)C/C(O)=C(/N=Nc1cccc(C(F)(F)F)c1)C(=O)OC	-4%
COc1ccc(NC(=O)C(=O)NNC(=O)C(C)Oc2ccc(Cl)cc2Cl)cc1 (centres undefined)	14%
O=C(CCc1ccc(S(=O)(=O)NC2CCCCC2)cc1)NCc1ccccc1	-1%
COc1ccc(C(=O)Nc2nnc(SCc3cc(=O)n4cc(Cl)ccc4n3)s2)cc1	17%
Clc1cccc(Cl)c1CSc1nnc(-c2sccc2-n2cccc2)o1	26%
Cc1nn(-c2ccccc2)c(C)c1C(=O)NCc1ccc(S(N)(=O)=O)cc1	-27%
COc1ccc(OCc2nc3c4cc(OC)c(OC)cc4nc(=S)n3[nH]2)cc1	1%
Cc1cccc(N2CCN(c3cc(C)nc4nnnn34)CC2C)c1 (centres undefined)	-12%
Cc1cccc(NS(=O)(=O)c2ccc3c(c2)CCN3C(=O)C2CC2)c1C	-25%
Cc1nn(-c2ccc(N3CCCC3)nn2)c(C)c1CCC(=O)NCc1ccc(F)cc1	8%
CC1CCCCN1C(=O)CCNC(=O)Cn1cnc2ccccc2c1=O (centres undefined)	-11%
Cc1cc(N2CCCCC2)nc2c(C)cccc12	-24%
Cc1oc2ncnc(N3CCCCC3)c2c1C(=O)N1CCN(c2cccc(C(F)(F)F)c2)CC1	22%
COc1cccc(/C(C)=N/Nc2ncc(Cl)cc2Cl)c1	6%
Cc1cc(C)c2nc(SCC(=O)NC(=O)c3cccn3C)cc(C)c2c1	-13%
O=C(N=Nc1c(O)[nH]c2ccccc12)c1ccccc1NS(=O)(=O)c1cccs1	-2%
Cn1c(=O)c(-c2ccc(F)cc2)nc2cnc(OCc3ccccc3)nc21	0%
CC(C)(C)c1ccc(C(=O)NCc2ccccc2)cc1	-9%
COc1cccc2cc(-c3nc4sc(C(=O)Nc5ccc(F)cc5F)c(C)c4c(=O)[nH]3)c(=O)oc12	10%
CC(=O)c1cc(-c2ccccc2)n(CC(=O)Nc2cccc(C)c2C)c1C	2%
Cc1n[nH]c(C)c1S(=O)(=O)N1CCN(S(=O)(=O)c2ccccc2C#N)CC1	8%
COc1cc(OC)c(C(=O)Nc2ccc3ccccc3c2)cc1OC	-11%

Brought forward from above: 2 compounds; new compounds follow.
SMILES	VDR inhibitor
Cc1n[nH]c(C)c1S(=O)(=O)N1CCN(S(=O)(=O)c2ccccc2C#N)CC1	8%
COc1cc(OC)c(C(=O)Nc2ccc3ccccc3c2)cc1OC	-11%
CN(C)c1ccc(-n2cccc2/C=C2/SC(=Nc3ccc(F)cc3)NC2=O)cc1	-4%
O=c1c2ccccc2n2c(-c3ccc(F)cc3)nnc2n1Cc1ccccc1	-8%
Cc1cccc(C(=O)Nc2ccc(N3CCN(S(C)(=O)=O)CC3)cc2)c1	24%
Cc1ccc(S(=O)(=O)Oc2cc(N)c3c(n2)CCC3)cc1	7%

Some of the compounds tested. The share of hits here may be higher or lower than overall.
